HSD17B inhib: qHTS Assay for Inhibitors of HSD17B4, hydroxysteroid (17-beta) dehydrogenase 4. 3-hydroxyacyl-CoA dehydrogenase type-2 (Homo sapiens), Q99714. recombinant HSD17B10, NADH fluorescence kinetic; many of its hits are not listed in these tables. Potency, µM (doses to about 57.1 µM), for inactives: top-dose activity change, negative = inhibition, hits mostly inhibitors. actives 7.6% (n = 75,000); active means well fitted inhibition curve with a large enough effect; inconclusive means small, poorly fitted or top-dose-only effect; inactive means no such curve, though single readings can be large or run the other way;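 further: the protocol describes HADH2 (HSD17B10) and not the HSD17B4 of the title; nearly all actives have a fitted effect of over 70% in size; most hits overshoot -100% by far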
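His-tagged E. coli-expressed HADH2 at 20 nM in 100 mM Tris-HCl pH 9.0 with 0.01 % Tween-20, preincubated 15 min with compound at room temperature. Reaction with 1 mM NAD+ and 90 uM beta-hydroxybutyryl coenzyme A; NADH fluorescence (360/450 nm) read kinetically over 4 min, last minus first point.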
Numbers without * were called inactive; ? = inconclusive; [ ] = remark or other dose. On the % scale 0 is the no-effect control and ±100 the full control effect; potency means the concentration at half of the fitted maximal effect. Only part of the results is shown. The share of hits here may be higher or lower than overall.

SMILES	HSD17B inhib
CN(CCNC(=O)C1(O)c2ccccc2NC(=O)N1c1ccccc1)Cc1ccccc1 (stereo not drawn)	1%
Cn1cc(S(=O)(=O)CC(=O)Nc2ccc3c(c2)OCCO3)c2ccccc21	-16%
CCC(C)Nc1nc(SC(C(C)=O)C(C)=O)nc(N(C)C)n1 (stereo not drawn)	2%
CCOC(=O)C1=C(C)NC(=O)NC1c1ccc2c(c1)OCCO2 (stereo not drawn)	2%
COc1ccc(C(=O)Oc2c(CN3CCOCC3)cc(Cl)c3cccnc23)cc1OC	1%
O=C(CSc1ccc(-c2nc3ccccc3[nH]2)cn1)N1CCN(C(=O)c2ccco2)CC1	20µM*
CCOc1ccc(-n2c(SC(C)C)nc3c(c2=O)SCC3)cc1	-9%
O=C(CSc1nc(Nc2ccccc2)nc(N2CCOCC2)n1)Nc1ccc2c(c1)OCCO2	-19%
CCn1c(=O)n(CC)c2cc(S(=O)(=O)Nc3ccccc3C)c(C)cc21	-1%
O=C(Nc1nc(-c2cccs2)cs1)c1cccc(S(=O)(=O)N2CCCCCC2)c1	?

3 structures from above, arranged by length of the SMILES, highest first.
SMILES	HSD17B inhib
O=C(CSc1nc(Nc2ccccc2)nc(N2CCOCC2)n1)Nc1ccc2c(c1)OCCO2	-19%
Cn1cc(S(=O)(=O)CC(=O)Nc2ccc3c(c2)OCCO3)c2ccccc21	-16%
CCOc1ccc(-n2c(SC(C)C)nc3c(c2=O)SCC3)cc1	-9%

(continued)
SMILES	HSD17B inhib
COc1ccc(Br)c(C(=O)Nn2c(C)nc3ccccc3c2=O)c1	3%
COc1ccc(N2CCN(C(=O)c3ccc4nc(N5CCCCC5)sc4c3)CC2)cc1	-7%
CC(C)n1c(NCc2cccs2)nc2ccccc21	17%
Cc1nc2nc[nH]n2c(=O)c1NS(C)(=O)=O	1%
CSCCC(NC(=O)c1ccccc1)C(=O)NCc1ccco1 (stereo not drawn)	2%
Cn1cc(S(=O)(=O)N2CCN(c3cccc(C(F)(F)F)c3)CC2)c(=O)n(C)c1=O	7%
C#C[C@]1(O)CC[C@@H]2[C@H]3CCC4=CCCC[C@@H]4[C@@H]3CC[C@@]21C	-9%[25.6 µM]
CCCCNc1cc(=O)n(C)c(=O)[nH]1	7%
CCOC(=O)C(NC(=O)c1ccc(OC)cc1)(Nc1cc(C)on1)C(F)(F)F (stereo not drawn)	9%
O=S(=O)(Nc1ccc(-c2nc3cccnc3s2)cc1)c1cccs1	6.3µM*

Look-ups from the results shown.
Result of Cc1nc2nc[nH]n2c(=O)c1NS(C)(=O)=O in HSD17B inhib: 1%
Result of COc1ccc(Br)c(C(=O)Nn2c(C)nc3ccccc3c2=O)c1 in HSD17B inhib: 3%

Next entries follow:
SMILES	HSD17B inhib
Cc1cccn2c(N)c(-c3ccccc3)nc12	32µM*
CC(=O)c1c(C)nc2ccccn12	4%
COc1ccccc1NC(=O)Nc1ccnn1C1CCCCC1	6%
COc1ccc(Br)cc1S(=O)(=O)N1CC(C)OC(C)C1 (stereo not drawn)	1%
Cc1ccc2cc(CN(CC3CCCO3)S(=O)(=O)c3c(C)ccc4nsnc34)c(=O)[nH]c2c1 (stereo not drawn)	1%
Cc1ccc(-c2nnn(CC(=O)NCCc3ccc4c(c3)OCO4)n2)o1	?
O=C(COc1ccc(S(=O)(=O)N2CCCCC2)cc1)N1CCCCCC1	6%
CCOc1cc(NC(=O)c2ccco2)c(OCC)cc1NC(=O)CCc1ccc(OC)cc1	-18%
CCCOc1ccc(C2C(C(=O)OC)=C(C)N=C3SCCC(=O)N32)cc1OCC (stereo not drawn)	1%
CCOC(=O)c1cnc(SCC(=O)N2CCc3ccccc32)nc1N	-1%
CCCN(CCC)CCSc1nc(O)c(C(C)C)c(=O)[nH]1	9%
Cc1c(C(=O)O)[nH]c2c1C(=O)CC(c1ccc(Cl)cc1)C2 (stereo not drawn)	-5%
CN(CC(=O)Nc1ccc(F)c(Cl)c1)S(=O)(=O)c1cccc2nsnc12	0%
O=S(=O)(Nc1nccs1)c1ccc2c(c1)OCCO2	-11%
CC1CCC(N2CCN(S(C)(=O)=O)CC2)CC1 (stereo not drawn)	9%
COCCCN1C(=O)C(=O)/C(=C(/O)c2ccc(OCC(C)C)cc2C)C1c1cccnc1 (stereo not drawn)	-5%
Cc1onc(-c2ccccc2)c1C(=O)NCC1CCCO1 (stereo not drawn)	7%
COc1ccc(-c2noc(CCC(=O)NCCCN3CCC(C)CC3)n2)cc1	7%
CC1(C)[C@@H]2CC[C@]1(C)[C@@H](OC(=O)/C=C\c1ccccc1)C2	5%[11.4 µM]
Cc1ccc(NC(=O)CS(=O)CC(=O)N(c2ccccc2)C(C)C(=O)NC2CCCC2)cc1 (stereo not drawn)	2%
COP(=O)(OC)OC(c1ccc(Cl)cc1)P(=O)(OC)OC (stereo not drawn)	1%
COc1ccc(-c2nc(C#N)c(N3CCCCCC3)o2)cc1OC	32µM*
O=C(NCc1ccccc1)c1noc2c1CCCCC2	1%
O=C(COc1ccc(OCc2ccccc2)cc1)NC1CCOC1=O (stereo not drawn)	3%
COc1ccc(C2N3CC4(C)CN2CC(C)(C3)C4O)cc1 (stereo not drawn)	10%
Cc1c(C(=O)NCCN2CCOCC2)sc2nc(-c3ccc(F)cc3)cn12	7%
COc1ccccc1NC(=O)CC1C(=O)Nc2c1c(=O)n(C)c(=O)n2C (stereo not drawn)	?
Cc1ccc(NC2=CC(=O)CCC2)cc1C	8%
CCCc1nc2oc3c(N4CCNCC4)ncnc3c2c2c1CCCC2	5%
O[C@H]([C@H](O)[C@@H](O)c1nc2ccccc2[nH]1)[C@@H](O)c1nc2ccccc2[nH]1	8%[11.4 µM]
Cc1nnc(C)n1/N=C/c1ccc(C(C)C)cc1	-2%
Cc1ccc(S(=O)(=O)N[C@H]2COC(=O)[C@@H](C)COC(=O)C/C=C\[C@H]2C)cc1	6%[11.4 µM]
COCCCN1CC23C=CC(O2)C(C(=O)O)C3C1=O (stereo not drawn)	8%
CCCn1cnc2c(cnn2-c2ccc(F)cc2)c1=O	-4%
Cc1ccc(C(=O)CSc2nc3ccccc3c(=O)n2N)o1	-9%
COc1ccc(C)cc1S(=O)(=O)N(C)CC(=O)Nc1ccc2c(c1)OCO2	-2%
COC(=O)[C@@]1(Cc2ccc(F)cc2)[C@H]2c3cc(C(=O)N(C)C)n(CCCNc4ccc(C(F)(F)F)cc4Cl)c3C[C@H]2CN1C(=O)c1ccccc1	0%
COc1ccccc1Nc1nc(N)nc(CN2CCN(c3ccccc3F)CC2)n1	5%
CCCCN(CC)CCNc1c(N2CCN(C(=O)OCC)CC2)c(=O)c1=O	-12%
c1ccc(Nc2n[nH]nc2-c2ccccc2)cc1	3%

Continued, overlapping the part above by 2 compounds.
SMILES	HSD17B inhib
CCCCN(CC)CCNc1c(N2CCN(C(=O)OCC)CC2)c(=O)c1=O	-12%
c1ccc(Nc2n[nH]nc2-c2ccccc2)cc1	3%
COc1cc(CNc2ccc3[nH]c(=O)[nH]c3c2)ccc1OCC(=O)NC(C)(C)C	?
S=C(NC1CCCCC1)NC1CCCCC1	-9%
CCOC(=O)N1CCC(NC(=O)c2sc(-n3cccc3)nc2C)CC1	3%
CCC1S/C(=C(\C#N)C(=O)NCc2ccco2)N(c2ccc(Br)cc2)C1=O (stereo not drawn)	-10%
CCOc1ccc(N2C(=O)c3ccccc3C2O)cc1 (stereo not drawn)	2%
CCCn1nnc(NC(=O)c2cc3ccccc3o2)n1	5%
Cc1ccc(S(=O)(=O)Cc2ccc(C(=O)N3CCCCCC3)o2)cc1	4%
O=C(NCc1cccs1)c1ccc(Cl)s1	0%
CC1=C(C(=O)NCCN2CCN(C)CC2)C2(CCC(C)CC2)OC1=O (stereo not drawn)	9%
CCOc1ccc(N(CC(=O)Nc2ccc(C)c(C)c2)S(=O)(=O)c2c(C)noc2C)cc1	-7%
CCCCCc1nnc(NC(=O)OCCC)s1	3%
O=C(CSc1nnnn1C1CCCC1)Nc1cccc(NC(=O)c2ccco2)c1	-1%
CN(C)c1ccccc1CN1CCCN(Cc2ccccc2N(C)C)C1c1ccncc1	10%[11.4 µM]
COc1cc(NC(=O)C2CCN(S(=O)(=O)c3cccc4nonc34)CC2)cc(OC)c1	0%
Cc1cccc(C)c1NC(=O)CCCSc1nnnn1C	5%
COCCn1c(Sc2nc(C)cs2)nc2c1c(=O)[nH]c(=O)n2C	17%
Cc1nnc(SCC(=O)Nc2sccc2C(N)=O)n1Cc1ccccc1	-11%
CC(=O)Nc1ccc(S(=O)(=O)Nc2cc(C)c(-n3nc4ccccc4n3)cc2O)cc1	-1%
O=C(Nc1ccccc1)c1ccc(S(=O)(=O)N(CCO)CCO)cc1	12%
Cc1cc(=O)n(C)c(=O)n1CCCNc1ccccc1	19%
C#CCCCO/N=C1/C[C@@H](O)[C@@H](O)[C@@H]2[C@@H]3C(=O)N([C@@H](C)c4ccccc4)C(=O)[C@H]3CC[C@@H]12	4%[11.4 µM]
CCCCCC/C=C\CCCCCCCc1cccc(O)c1C(=O)O	?
CC(C)=NO[C@@H](C)CN1CCCc2nc(C)c(C)cc21	3.2µM*
c1ccc2c(c1)NC1(CCCCC1)n1c-2nc2ccccc21	25µM*
CCN(CC)S(=O)(=O)c1ccc(C(=O)NCCc2cc3c(OC)ccc(OC)c3[nH]c2=O)cc1	7%
CCOc1ccc(N(CC(=O)N2CC=C(c3ccccc3)CC2)S(=O)(=O)c2c(C)noc2C)cc1	0%
Cc1ccc(S(=O)(=O)NCCN(CCNS(=O)(=O)c2ccc(C)cc2)S(C)(=O)=O)cc1	1%
O=C(Cn1cnc2ccccc2c1=O)NCCC(=O)N1CCN(Cc2ccccc2)CC1	15%
O=C(OCCN1CCCCC1)c1ccccc1Cl	8%
CC1CCN(S(=O)(=O)c2ccc(NC(=O)c3cccs3)cc2)CC1	?
CC(C)C(NC(=O)CC12CC3CC(CC(C3)C1)C2)C(=O)O (stereo not drawn)	-12%
O=C(NCCC1=CCCCC1)C1CCCN(S(=O)(=O)c2ccccc2)C1 (stereo not drawn)	-2%
Cc1ccc(Cn2nnc(C(=O)Nc3cccc(C)c3C)c2N)cc1	?
O=C(CSc1nnc2scc(-c3ccccc3)n12)NCc1ccco1	4%
CCN(Cc1cc2cc(C)ccc2[nH]c1=O)S(=O)(=O)c1ccccc1	-5%
O=C1NC(c2ccc3c(c2)OCO3)Nc2ccccc21 (stereo not drawn)	13µM*
COC(=O)CSC1=C(C#N)C(c2ccccc2)CC(=O)N1 (stereo not drawn)	2%
C=CCNS(=O)(=O)c1ccc(OCC(=O)OCC)cc1	8%
N#Cc1c(/N=C/c2cccs2)sc2c1CCC2	-3%
O=C(Cc1cccs1)NC1C(=O)N2C(C(=O)[O-])=C(C[n+]3ccccc3)CSC12 (stereo not drawn)	-81%
Cc1ccc(-n2nnnc2SCC(=O)c2c(N)n(CC(C)C)c(=O)n(C)c2=O)cc1	4%
CCOC(=O)c1c(C)n(CCO)c2ccc(O)cc12	4%
CC1(C(=O)NC2CCCCCC2)CCC(=O)N1Cc1ccc2c(c1)OCO2 (stereo not drawn)	2%
CCn1c(SCC(=O)NCC2CCCO2)nc2c(c1=O)SC(C)C2 (stereo not drawn)	-8%
Cc1noc(C)c1C(=O)Nc1nc(C23CC4CC(CC(C4)C2)C3)cs1	-15%
Cc1ccnc(NC(=O)CCC(=O)N(CC(=O)NC2CCCCC2)Cc2ccc3c(c2)OCO3)c1	5%
CCOC(=O)c1c(-c2ccc(C)s2)csc1NC(=O)c1ccco1	?
O=C(CCCN1C(=O)CCC1=O)Nc1ccc2c(c1)OCO2	5%
CC1Cc2ccccc2N1C(=O)Cn1nc(C(=O)O)c2ccccc2c1=O (stereo not drawn)	3%
Cc1cc(NC(=O)c2cc(-c3ccco3)on2)nn1Cc1ccc(Cl)cc1	301%[activator]

Structures above that have a COOH group (five):
SMILES	HSD17B inhib
Cc1c(C(=O)O)[nH]c2c1C(=O)CC(c1ccc(Cl)cc1)C2 (stereo not drawn)	-5%
COCCCN1CC23C=CC(O2)C(C(=O)O)C3C1=O (stereo not drawn)	8%
CCCCCC/C=C\CCCCCCCc1cccc(O)c1C(=O)O	?
CC(C)C(NC(=O)CC12CC3CC(CC(C3)C1)C2)C(=O)O (stereo not drawn)	-12%
CC1Cc2ccccc2N1C(=O)Cn1nc(C(=O)O)c2ccccc2c1=O (stereo not drawn)	3%

Further records:
SMILES	HSD17B inhib
CC(C)NCC(O)Cn1c2c(c3ccccc31)CCc1c-2cnn1-c1ccccc1 (stereo not drawn)	32µM*
COc1ccc(C(=O)NCc2ccccc2OC)c(OC)c1	7%
COc1ccccc1-n1cnnc1SCC(=O)c1cc(C)n(Cc2cccs2)c1C	-10%
COc1ccc(NC(=O)N2CCCC3(CCN(C(=O)c4ccc(OC)cc4)CC3)C2)cc1	-7%
O=C(NCC1CCCO1)c1ccc(/C=N/O)nc1 (stereo not drawn)	-5%
CC(C)COC(=O)C1C2C=CC3(CN(C4CCCC4)C(=O)C13)O2 (stereo not drawn)	10%
COc1ccccc1NC(=O)c1sc2nc(-c3ccco3)ccc2c1N	1%
O=C1CCCC2=C1C(c1ccsc1)CC(=O)N2c1ccccc1 (stereo not drawn)	1%
Cc1cc(C(=O)Nc2cccc(O)c2)co1	-10%
CCOC(=O)C1CCCN(C(=O)C2CCN(c3nnc(-n4cccc4)s3)CC2)C1 (stereo not drawn)	0%
Cc1nc2sc3c(c2c(=O)o1)CCC3	16%
O=C(Nc1cccc(O)c1)c1cccc(S(=O)(=O)N2CCCC2)c1	-18%
Oc1ccccc1CNc1nc2ccccc2n1CCN1CCCCC1	4%
O=C(CSCc1nc2ccccc2[nH]1)N1CCN(c2cccc(Cl)c2)CC1	1%

Screens: PubChem BioAssay, National Center for Advancing Translational Sciences (NCATS)
